ClpP mod – qHTS Assay for Activators of ClpP; Potency, µM (top dose mostly 57.5 µM), inactives show at the highest dose activity change, negative = active; purified B. subtilis ClpP, FRET peptide cleavage, 20 min; AID 651965, 2013; 340,000 compounds, 1.9% hits; active = well fitted falling curve with a large enough effect; inconclusive = small, poorly fitted or top-dose-only effect; inactive = no such curve, though single readings can be large or run the other way; also: potency is read from the fitted curve at half-maximal effect; the source files actives as falling curves though it sought activators and does not explain the sign; nearly all actives have a fitted effect of over 65% in size; many hits overshoot -100%
Target sequence (P80244 whole entry, looked up): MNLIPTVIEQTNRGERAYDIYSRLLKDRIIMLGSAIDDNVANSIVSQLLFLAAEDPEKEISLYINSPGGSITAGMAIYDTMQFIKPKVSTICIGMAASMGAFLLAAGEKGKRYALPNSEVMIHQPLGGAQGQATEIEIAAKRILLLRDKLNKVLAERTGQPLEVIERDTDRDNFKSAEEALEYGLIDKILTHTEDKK
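FRET quenching reversal measured ClpP activation: 10 microg/mL B. subtilis ClpP at pH 8 with the FRET-FV decapeptide, read at 430 nm after 320 nm excitation. The 20-min minus 0-min signal was scaled between DMSO/no-enzyme wells and ADEP (5.8 microM final).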
Menin MLL FP FL – menin-MLL binding inhibition, fluorescein peptide. 290,000 tested, under 10 active. Fluorescence polarization, fluorescein-MLL peptide displacement from menin. FP activity change, % at 61.4 µM; inconclusive = falling polarisation curve, or a change in total fluorescence; inactive = total fluorescence flat and polarisation flat or rising; no compound was filed as active; the % refers to the polarisation; negative = inhibition;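 also: % of control where 0% means no effect; inhibitors lower the polarisation; unlabelled MLL peptide was the positive control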
Sfp PPTase inh – inhibitors of Bacillus subtilis Sfp phosphopantetheinyl transferase. Biochemical Sfp PPTase activity, qHTS. Q9F4F7. AID 1490. 310,000 compounds, 3.5% hits. Potency, µM, inactives show max response, negative = inhibition, actives largely listed as inhibitors; active = well fitted inhibition curve with a large enough effect; inconclusive = small, poorly fitted or top-dose-only effect, or another doubt; inactive = no such curve, though single readings can be large or run the other way;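 also: the enzyme is Sfp with the accession as filed and its product quenches rhodamine fluorescence; potency is read from the fitted curve at half-maximal effect; 0% = enzyme reaction without inhibitor and -100% = no enzyme wells; top concentration of the series not given in the record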
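After 15 min at room temperature with compound, 15 nM Sfp received 5 uM rhodamine-CoA plus 12.5 uM BHQ-2-ybbR (50 mM Hepes pH 7.6, 10 mM MgCl2). Rate came from the fluorescence difference over 30 min, ex 525/em 598 nm.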
gsp agonist – gsp mutant agonism; gsp mutant cells, cAMP HTRF, 30 min; control for the full effect not named in the record; Potency, µM (titrated, usually from 76.9 µM), for the others: at the highest dose activation (cAMP increase), actives largely listed as activators; 340,000 compounds, 0.13% hits; AID 624287; active = well fitted activation curve with a large enough effect; inconclusive = small, poorly fitted or top-dose-only effect, or another doubt; inactive = no such curve, though single readings can be large or run the other way; cell line not stated here;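 also: phosphodiesterase inhibitor Ro 20-1724 added with compounds to block cAMP breakdown; potency is read from the fitted curve at half-maximal effect; nearly all actives have a fitted effect of over 60% in size; about a fifth of the inactives were tested at one dose only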
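Cells in DMEM/10% FBS with G418 were pretreated with compounds in DMSO plus […] (300 uM stock) for 30 min at 37C. cAMP was measured by HTRF (cAMP-d2 plus anti-cAMP antibody-K) after 30 min at room temperature.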
TRPV1 PAM – enhances activation of the human vanilloid receptor TRPV1; Q8NER1; 320,000 compounds, 0.02% hits; potentiation, % at 8.33 µM; TRPV1-expressing cells, Fluo-8 calcium influx, capsaicin EC20 potentiation; host cell line not named in the record; control for the full effect not named in the record; active means potentiation above 80%; inconclusive means 30% to 80%; inactive means below 30%; also: 0% is about no effect
Target sequence (Q8NER1 whole entry, looked up): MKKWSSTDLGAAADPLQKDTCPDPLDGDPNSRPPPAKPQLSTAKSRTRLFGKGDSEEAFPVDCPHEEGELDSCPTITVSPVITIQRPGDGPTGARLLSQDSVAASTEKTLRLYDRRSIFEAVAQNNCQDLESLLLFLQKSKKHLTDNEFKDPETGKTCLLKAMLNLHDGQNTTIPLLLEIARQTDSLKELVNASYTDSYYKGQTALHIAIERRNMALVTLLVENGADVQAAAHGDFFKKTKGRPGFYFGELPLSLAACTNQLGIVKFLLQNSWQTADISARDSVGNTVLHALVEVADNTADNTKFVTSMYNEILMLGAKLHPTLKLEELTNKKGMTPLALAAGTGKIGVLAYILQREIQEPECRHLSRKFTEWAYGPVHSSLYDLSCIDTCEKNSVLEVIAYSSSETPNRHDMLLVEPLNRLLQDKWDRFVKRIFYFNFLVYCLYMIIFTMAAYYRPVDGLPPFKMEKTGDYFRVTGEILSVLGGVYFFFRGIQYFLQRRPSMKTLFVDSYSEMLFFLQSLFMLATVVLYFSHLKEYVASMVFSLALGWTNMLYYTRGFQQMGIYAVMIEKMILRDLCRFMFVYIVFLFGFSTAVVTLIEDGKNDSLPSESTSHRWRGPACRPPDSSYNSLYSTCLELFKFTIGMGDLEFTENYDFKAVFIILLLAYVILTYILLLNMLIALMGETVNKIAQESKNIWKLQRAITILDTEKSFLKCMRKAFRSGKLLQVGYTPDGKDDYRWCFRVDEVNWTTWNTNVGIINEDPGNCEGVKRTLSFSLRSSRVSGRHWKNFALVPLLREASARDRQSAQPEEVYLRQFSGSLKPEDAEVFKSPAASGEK
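Cells expressing TRPV1 were dye-loaded with Fluo-8 and read kinetically: 10 s baseline, 3 min after compound (agonist portion), then 2 min after EC20 capsaicin (allosteric enhancer portion). Calcium-bound dye fluorescence at 480/520 nm.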
CtBP-E1A blk – blocks the CtBP interaction with E1A. AlphaScreen GST-E1A/His-CtBP binding, 1536-well; stronger effect = lower value; control for the full effect not named in the record. activity change, % (concentration not given with the values). 340,000 compounds, 0.49% hits; in the data active means activity change below about -65%; inconclusive means about -30% to -65%; inactive means above about -30%; also: % is scaled to controls: 0 for no effect and ±100 for the full control effect
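Homogeneous bead-based format: GST-tagged E1A captured on glutathione donor beads, His-tagged CtBP on nickel acceptor beads; compounds precede bead addition by 2 h at 37 °C.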
gsp antag – antagonizes gsp, the McCune-Albright syndrome mutation; 340,000 compounds, 0.4% hits; Potency, µM (titrated, usually from 76.9 µM), for inactives: top-dose activity change, negative = inhibition, most hits filed as inhibitors; AID 624288; gsp-mutant cells, cAMP HTRF, 30 min; control for the full effect not named in the record; active = falling curve of any shape with a large fitted effect; inconclusive = falling curve, mostly with a smaller effect; inactive = flat or rising curve; cell line not stated here;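 also: intracellular cAMP measured with PDE inhibitor Ro 20-1724 present during compound exposure; potency is read from the fitted curve at half-maximal effect; % is scaled to controls: 0 for no effect and ±100 for the full control effect; nearly all actives have a fitted effect of over 65% in size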
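Cells in G418 medium, seeded 16-24 h, 37C; buffer exchange to DPBS + 1 mM CaCl2, 0.5 mM MgCl2, 0.05% BSA; cpds in DMSO + […] (300 uM stock), 30 min 37C; HTRF cAMP detection.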
An asterisk follows results filed as active; ? = inconclusive; . = no result given; [ ] = another dose, or the depositor's remark.

Each structure is followed by: ClpP mod, Menin MLL FP FL, Sfp PPTase inh, gsp agonist, TRPV1 PAM, CtBP-E1A blk, gsp antag
CN1CCN(C(=O)CN2C(=O)COc3ccc(S(=O)(=O)N4CCOCC4)cc32)CC1
→ -18.8%, 0.8, 12.2%, 25.8%, -2.1, 2.2, -10.3%
CC(C)CC(=O)NCC(C)NC(=O)CC(C)C (stereo not given)
→ 0.4%, -3.6, -11.6%, 17.0%, -4.0, -3.0, 5.2%
Cc1nc(NCCc2ccccc2)c2nnn(Cc3ccccc3Cl)c2n1
→ 0.5%, -1.3, -2.2%, 0.5%[15.4 µM], 4.0, 8.2, 10.7%
CCOC(=O)NC(=O)c1cn(C(CC)CO)c(=O)[nH]c1=O (stereo not given)
→ ., 6.2, 8.9%, 1.3%[15.4 µM], -9.8, 4.0, 9.6%
COCCNC(=O)COc1cccc2c1OC(C)(C)C2
→ -1.0%, 2.6, 17.0%, 2.8%, 3.4, ., 7.9%
CCN(CC(=O)Nc1ccc2c(c1)OCCO2)C(=O)c1ccc(CS(C)(=O)=O)cc1
→ ., ., ., 0.3%, ., -2.9, 10.2%
COc1ccccc1NC(=S)Nc1ccccc1F
→ 0.0%, -0.2, -17.7%, 20.4%, 0.9, 5.8, -3.8%
CN(Cc1ccccc1)c1oc(COc2ccccc2F)nc1C#N
→ -0.1%, 2.4, ?, -65.0%[inhibitor], -0.5, -27.1, -2.8%
COc1ccc(NC(=O)CCCCC(=O)Nc2ccc(OC)cc2)cc1
→ ?, -2.3, 15.0%, 3.1%[15.4 µM], -2.5, -1.3, 6.6%
Cc1nn(Cc2ccccc2)c(Cl)c1C(=O)NCCc1ccccc1
→ -2.0%, 5.0, 12.8%, -41.6%[inhibitor], -15.1, -18.1, -1.7%
Cc1nn2c(Nc3ccc(F)cc3)c3c(nc2c1-c1ccccc1)CCC3
→ 13.8%, ., 4.9%, -16.0%, -5.0, -10.5, 1.1%
COc1ccc(NC(=O)C(CC(C)C)NS(=O)(=O)c2ccc3c(c2)CCN3C(C)=O)cc1OC (stereo not given)
→ -0.2%, 5.7, 14.0%, -44.2%, 13.7, -3.9, 2.7%
Cc1ccc(C)c(N2CCN(C(=O)CCc3nc(-c4ccccc4C)no3)CC2)c1
→ 1.7%, ., ., ., ., 4.7, -21.2%
CC(C)(C)OC(=O)N1CCCC(C(=O)Nc2ccc(C(=O)NCCc3ccccc3)cc2)C1 (stereo not given)
→ -3.0%, ., ., ., ., 2.1, -4.4%
COc1ccc(/C=N/OCC(=O)N(Cc2ccc(OC)cc2)c2ccccc2C(=O)O)cc1
→ ., -2.9, -16.3%, -4.0%[15.4 µM], 8.0, 3.8, -11.5%
Cc1nccn1CCC1CCCCN1C(=O)CCc1nnc(-c2ccsc2)o1 (stereo not given)
→ ., 0.1, 0.7%, -20.6%[15.4 µM], 15.6, 0.0, 11.0%
CN(Cc1cc2ccccc2[nH]c1=O)C(=O)c1cccs1
→ ., -4.8, 12.6%, 18.0%, 1.4, -0.4, -4.0%
COc1ccc(CSc2nnc(-c3ccncc3)n2C)cc1F
→ ., -4.2, 5.2%, 26.3%, 11.1, 4.6, 4.4%
O=C(CCCSc1nc(-c2ccco2)cc(C(F)(F)F)n1)Nc1ccc2c(c1)OCO2
→ -2.7%, 3.3, 21.4%, 7.0%, 23.6, -8.9, -4.2%
O=C(NC1CCCCC1)c1n[nH]c2c1CC(c1ccccc1)CC2 (stereo not given)
→ -0.5%, ., ., -2.0%, ?, ., -0.1%

The list continues.
Each structure is followed by: ClpP mod, Menin MLL FP FL, Sfp PPTase inh, gsp agonist, TRPV1 PAM, CtBP-E1A blk, gsp antag
CCOC(=O)N1CCC(NC(=O)Cn2nc(-c3ccccc3)ccc2=O)CC1
→ -14.2%, -0.9, 10.8%, 2.8%, -8.6, -6.0, -0.2%
Cc1cc2oc(=O)cc(CN3CCN(S(=O)(=O)c4cccs4)CC3)c2cc1C
→ -5.2%, 3.4, 17.1%, -25.5%, -19.0, 0.3, -3.2%
COc1cc(C(C)=O)ccc1OCC(O)CN1CCN(c2cc(C)cc(C)c2)CC1 (stereo not given)
→ -5.1%, -3.9, 1.7%, 14.8%, 10.8, -13.0, -9.4%
Nc1nonc1C(=O)NCCNC(=O)c1cccs1
→ -2.2%, 0.8, 24.7%, -24.2%, 7.0, 6.0, 7.2%
O=C(CSc1ccc2nnc(-c3cccnc3)n2n1)Nc1ccc(F)cc1F
→ -23.6%, ., 4.8%, 41.1%[15.4 µM], 7.1, -69.0*, -12.8%
Cc1ccccc1Nc1nc(N)nc(CSc2nnc(C)n2C)n1
→ ., -3.4, 0.6%, 8.9%[15.4 µM], 2.8, 8.2, -12.9%
O=C(Nc1cccnc1)C1CCN(S(=O)(=O)c2cccs2)CC1
→ 2.3%, -2.5, 5.3%, -28.5%, -12.3, ., 3.9%
COc1ccc(C(=O)/C=C/C(=O)N(Cc2ccccc2OC)C(C(=O)NC2CCCCC2)c2ccncc2)c(O)c1 (stereo not given)
→ 0.2%, 3.0, 6.9%, -1.0%[15.4 µM], -8.4, -8.5, ?
Cc1ccc(C(=O)NCC(=O)N2CCN(c3ccccc3O)CC2)s1
→ -3.1%, ., ., -43.2%[inhibitor], ., -9.3, .
COc1ccc(C(=O)Cn2c(N3CCOCC3)nc3ccccc32)cc1OC
→ ., 7.1, 2.6%, ., -9.9, ., .
O=C(NCCCN=C1NS(=O)(=O)c2ccccc21)c1ccc(Cl)cc1
→ ., -1.7, 14.9%, 1.3%[15.4 µM], 20.4, 0.1, 5.1%
COc1ccc(NC(=O)Cc2ccc(Cl)c(Cl)c2)cn1
→ -0.6%, -9.6, 7.8%, 5.9%, 19.2, ., 1.6%
O=C(NCC1CCCO1)c1ccc(COc2ccc(Cl)cc2)cc1 (stereo not given)
→ ., 0.8, 7.1%, -5.0%[15.4 µM], -3.5, 4.2, 0.2%
CN(C)C(CNC(=S)Nc1cccc(Cl)c1)c1cccnc1 (stereo not given)
→ ., 1.2, 10.4%, 6.1%[15.4 µM], 0.8, 4.1, 10.7%
CN(C)S(=O)(=O)n1cc(/C=C(\NC(=O)c2ccccc2)C(=O)N2CCCC2)c2ccccc21
→ -3.4%, -0.7, 6.1%, -4.6%, -15.2, ., -13.8%
CC1C(=O)C(C)C(c2cccc(Br)c2)NC1c1cccc(Br)c1 (stereo not given)
→ -1.3%, -0.8, -13.9%, ?, 4.1, -10.6, -8.2%
CC1CCCC(NC(=O)COC(=O)c2cccc(NS(=O)(=O)/C=C/c3ccccc3)c2)C1C (stereo not given)
→ -3.2%, 9.0, 1.2%, 11.9%, 1.1, -3.6, -32.0%
CCn1cc(C(=O)NCCCN2CCCCCC2)c(=O)c2cc(S(=O)(=O)N3CCc4ccccc4C3)ccc21
→ ., 1.9, 89.1µM*, -18.0%, -13.6, -6.6, -4.9%
CCN1C(=O)CC(C(=O)OC)=C1C
→ 0.6%, 1.4, 0.5%, 25.6%, -4.9, ., 9.0%
COc1ccccc1NNC(=O)C(O)(c1ccccc1OC)c1ccccc1OC
→ -0.9%, 5.5, -4.0%, -27.8%, 0.1, 3.0, 5.8%

Carrying on.
Each structure is followed by: ClpP mod, Menin MLL FP FL, Sfp PPTase inh, gsp agonist, TRPV1 PAM, CtBP-E1A blk, gsp antag
CCOC(=O)C(C(C)=O)C(c1ccc(OC)cc1)C(C(C)=O)C(=O)OCC (stereo not given)
→ -2.8%, -1.1, 15.8%, 24.5%, 1.2, 6.1, -1.2%
CCc1ccccc1NC(=O)c1cc2ncc(Br)cn2n1
→ ?, 2.1, 5.7%, 22.1%, -3.3, 0.3, 8.4%
CCCn1cnc2c(=S)nc(N)[nH]c21
→ 4.5%, -0.2, 39.8µM*, 24.8%, 9.4, 4.1, -2.1%
COc1ccc(CCNC/C=C/c2ccccc2)cc1
→ ., ., ., 7.7%, ., 4.7, 5.6%
COC(=O)C1CCN(CC(=O)N(C)c2c(N)n(Cc3ccccc3)c(=O)[nH]c2=O)CC1
→ -1.2%, ., ., 6.9%, -6.9, 0.0, 3.9%
Cc1cccc(NC(=O)c2cc(NC(=O)C3CCCCC3C(=O)O)ccc2Cl)n1 (stereo not given)
→ -2.2%, -0.4, 13.1%, 6.1%, 4.4, 3.2, -7.0%[15.4 µM]
O=C(C1CCCCC1)N(Cc1ccccc1)c1ccccn1
→ -3.2%, -1.5, 16.0%, 6.0%, -4.2, 5.3, -25.3%
Cc1cc(C(=O)OCC(=O)c2cccs2)ccc1[N+](=O)[O-]
→ ., ., ., 26.3%[15.4 µM], -12.3, -7.3, -11.8%
CN(Cc1ccccn1)Cc1nc(COc2ccccc2)no1
→ ., -2.1, -0.7%, -0.6%, 2.4, 7.1, 5.9%
O=C(NCc1nc2ccccc2[nH]1)C1=C[C@H](c2coc3ccccc3c2=O)C[C@H](OCc2ccc(CO)cc2)O1
→ -2.1%, 7.7, 8.9%, ., -5.3, -7.9, -16.4%
O=C(CSc1nc(-c2ccccc2)nn1C(=O)c1ccccc1)Nc1cccc([N+](=O)[O-])c1
→ -6.7%, 18.5, -0.1%, -9.2%, 0.3, -18.0, ?
O=C(CC(Cc1ccccc1)C(=O)O)Nc1cccc(C(F)(F)F)c1 (stereo not given)
→ -1.7%, 0.1, 19.0%, 6.1%[15.4 µM], 1.5, -5.7, 9.3%
Cc1cccc(OCC(=O)N(C)c2c(N)n(Cc3ccccc3)c(=O)[nH]c2=O)c1C
→ -0.4%, ., ., 25.6%, -7.7, ., 6.6%
O=C(COC(=O)Cc1c[nH]c2ccccc12)Nc1ccccc1C(F)(F)F
→ -1.0%, ., ., 1.3%, ., 12.8, -3.2%
COc1ccc(C[C@H]2CN3C(=NC[C@@H]3C(C)C)N2CCNC(=O)CCC2CCCCC2)cc1
→ 0.9%, 0.5, 7.9%, ?, -6.7, -0.8, 4.9%
CCCN(CC(=O)Nc1ccccc1C)C(=O)c1ccc(S(=O)(=O)N2CCCCC2)cc1
→ 1.6%, ., 10.9%, -11.6%[15.4 µM], 3.1, 0.0, -15.6%
O=C(NC(Cc1ccccc1)C(=O)NCCc1ccccn1)c1cccs1 (stereo not given)
→ -2.4%, 0.4, 1.8%, -1.5%, 13.5, ., -6.7%
C=CCN(c1ccccc1)S(=O)(=O)c1cccc(C(=O)Nc2cc(C)ccn2)c1
→ 1.1%, ., ., 20.6%, -17.6, 0.8, -30.5%

Screens as filed in PubChem.
